PABP FP inh – blocks human PABP binding to poly(A) RNA | P11940 | fluorescence polarization | inhibition, % at 35 µM | actives 1% (n = 290,000);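 active = 50% or more with normal probe brightness, or confirmed in later tests; about a fifth of its hits are not listed in these tables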;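 note: calls also rest on retests at 20 µM and on dose response follow-up; controls were probe without protein and protein plus probe with vehicle; some compounds called inactive have numbers as strong as hits; many hits fall short of the cut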
Target sequence (P11940 whole entry, looked up): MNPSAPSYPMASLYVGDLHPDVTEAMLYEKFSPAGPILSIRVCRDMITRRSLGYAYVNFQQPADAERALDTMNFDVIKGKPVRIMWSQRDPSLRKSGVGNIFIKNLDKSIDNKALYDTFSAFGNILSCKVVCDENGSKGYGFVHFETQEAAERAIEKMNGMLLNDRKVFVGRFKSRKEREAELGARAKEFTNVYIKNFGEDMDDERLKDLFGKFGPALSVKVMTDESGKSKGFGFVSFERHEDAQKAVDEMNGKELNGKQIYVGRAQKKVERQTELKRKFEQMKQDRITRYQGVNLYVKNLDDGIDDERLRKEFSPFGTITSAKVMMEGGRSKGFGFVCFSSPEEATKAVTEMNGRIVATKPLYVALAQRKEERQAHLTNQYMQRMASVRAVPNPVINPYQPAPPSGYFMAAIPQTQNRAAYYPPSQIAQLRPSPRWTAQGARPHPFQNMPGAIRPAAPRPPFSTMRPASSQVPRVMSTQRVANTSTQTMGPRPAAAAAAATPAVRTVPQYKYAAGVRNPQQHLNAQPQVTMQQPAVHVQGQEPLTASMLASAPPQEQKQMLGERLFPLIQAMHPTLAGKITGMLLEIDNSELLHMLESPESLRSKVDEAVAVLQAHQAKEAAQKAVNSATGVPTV
UUG fidelity – yeast start codon fidelity modulation. S. cerevisiae UUG-firefly luciferase reporter, luminescence/redox ratio. activity score, % at 18.7 µM. AID 602363. actives 0.13% (n = 350,000);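 active = replicate mean at a twofold rise or more, about +100% in these data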;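 note: firefly luciferase made from a UUG start codon reports start codon fidelity; reporter light over untreated wells divided by growth signal over untreated wells; some hits fall short of that in this replicate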
Env fusion inh – HIV envelope-mediated fusion inhibition; AID 651610; HeLa-JRFL Env/CEM21 cell fusion, luciferase; inhibition, % at 12.3 µM; actives 1.1% (n = 360,000);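 active = mean replicate inhibition score of at least 50 and every replicate individually at or above 50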;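 note: 0% = plate neutral controls and 100% = maraviroc near 300 nM; one replicate is shown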
CSC inhib – cancer stem cell inhibition | cancer stem cell-like cells viability, luminescence | inhibition, % at 7.5 µM | actives 1.1% (n = 300,000);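 active = mean at 75% or more and at least half the replicates too; tested in HMLE shEcad cells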;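 note: 0% = median of negative and 100% = median of positive control wells; the first replicate is given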
Rce1 inhib – blocks yeast Ras-converting enzyme. calls only. yeast membranes, quenched prenylated peptide cleavage fluorescence. actives 0.27% (n = 290,000). Q03530;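 active = fall in fluorescence gain of 50% or more versus controls, with final raw signal at or below 3038400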;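 note: plate controls were neutral control wells for no effect and wells lacking membranes for full effect; tested at 10 µM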
Target sequence (Q03530 whole entry, looked up): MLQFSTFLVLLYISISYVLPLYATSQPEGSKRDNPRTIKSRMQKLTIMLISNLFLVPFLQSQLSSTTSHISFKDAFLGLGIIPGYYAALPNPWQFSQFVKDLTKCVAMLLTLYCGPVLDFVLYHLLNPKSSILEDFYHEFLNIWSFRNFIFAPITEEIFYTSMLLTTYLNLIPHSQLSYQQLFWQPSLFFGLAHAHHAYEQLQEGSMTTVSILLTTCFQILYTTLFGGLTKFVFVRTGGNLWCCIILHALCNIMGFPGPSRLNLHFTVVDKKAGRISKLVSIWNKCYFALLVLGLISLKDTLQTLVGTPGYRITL
MT1-MMP act inh – blocks activation of human MT1-MMP | GFP/RFP ratio change, % at 20 µM | actives 0.061% (n = 360,000) | AID 651647 | HT1080 RFP-PRO-GFP cells, GFP/RFP ratio fluorescence, overnight; percent of plate control window, DMSO zero;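 active = GFP/RFP ratio change of at least 30% with cell ATP level not reduced by more than half and red fluorescence within 50% of control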; note: strong numbers were not always called active
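Assay system – RFP-PRO-GFP reporter HT1080 cells · Compound dosing – single dose of 20 µM compound, 1% DMSO final · Incubation – overnight compound exposure at 37 °C · Measure – GFP/RFP fluorescence ratio · Benchmarks – DMSO wells and RFP-L50D-GFP cells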
eIF4H inh – inhibitors of RNA binding by human eIF4H; eIF4H fluorescence polarization binding assay; inhibition, % at 35 µM; actives 0.94% (n = 290,000); AID 2012;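 active = 50% or more with normal probe brightness, or confirmed in later tests; about a fifth of its hits are not listed in these tables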;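 note: calls also rest on retests at 20 µM and on dose response follow-up; 0% = protein and probe with vehicle and 100% = probe without protein; strong numbers were not always called active; many hits fall short of the cut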
MT1-MMP act inh RFP – second read-out of MT1-MMP act inh, no call of its own (marks repeat the call); RFP signal change, %; measured here: RFP expression control read;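 0 = vehicle wells; hits needed this value within 50% of zero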
Active calls of the source: *; i = inactive; nt = not tested or not shown; & = joins results of further samples. These rows are one share of the data; count on the stated rates, not on these rows.

Under each structure: MT1-MMP act inh RFP	eIF4H inh	CSC inhib	Rce1 inhib	Env fusion inh	UUG fidelity	MT1-MMP act inh	PABP FP inh
O=C(CNC(=O)c1ccc(Cl)cc1Cl)OCC(=O)c1ccc2c(c1)OCCO2
 : -15	7	-10	nt	nt	-6	-2	-5
Cc1ccc2c(c1)N(CC(=O)NCCc1ccc(Cl)cc1)C(=O)c1cccnc1O2
 : -2	4	nt	i	-26	-17	-5	-5
Cc1nc(NC(=O)c2ccccc2)sc1-c1csc(Nc2ccc(Cl)cc2Cl)n1
 : nt	-6	9	i	nt	nt	nt	-8
COc1ccccc1C(=O)OC(C)CN1CCN(C)CC1 (stereo not given)
 : 1	3	-5	i	7	-13	-1	10
Cc1ccc(C)c(S(=O)(=O)NC(C)C(=O)NCc2ccccn2)c1 (stereo not given)
 : -1	-2	-7	nt	7	-20	-4	-9
Cn1nnc2cc(C(=O)NCc3ccc4c(c3)OCO4)ccc21
 : 5	-7	7	i	nt	-23	7	4
O=S(=O)(c1ccc(F)c2ccccc12)N1CCCCC1
 : -5	8	14	i	nt	-15	-3	10
CCN1CCCC1CNC(=O)c1cc2cc(F)ccc2[nH]1 (stereo not given)
 : 0	5	-1	i	7	6	-5	3
CCOC(=O)c1c(NC(=O)Cn2c(=O)oc3ccccc32)oc(C)c1C(C)=O
 : 9	5	0	i	nt	-16	-1	-2
COc1ccc(OCC(=O)OCCN(C)C)cc1
 : 5	0	-4	i	nt	14	4	0
Cc1ccc(CSCCNC(=O)CN(c2ccc(F)cc2)S(C)(=O)=O)cc1
 : -7	4	12	i	42	11	0	9
CC(C)(CNC(=O)c1cc(=O)[nH]c2ccccc12)N1CCOCC1
 : 4	2	-13	i	nt	-15	2	6
COc1ccc(S(=O)(=O)Nc2c(C)nc3nc(C)[nH]n3c2=O)cc1
 : 3	-5	nt	i	-3	1	0	10
CCOC(=O)N1CCN(C(=O)CN(c2ccccc2OC)S(=O)(=O)c2ccc(OC)cc2)CC1
 : 4	-4	-10	i	3	nt	-2	-8
CN(C)c1ccc(S(=O)(=O)N2CCCCC2)cc1NC(=O)CCNC(=O)c1ccco1
 : 8	nt	nt	nt	-1	9	-1	nt
Cc1cc(-c2nnc(CCC(=O)NCCc3ccccc3F)o2)no1
 : 3	-9	12	i	nt	-3	0	-4
COc1cc(CN2CCN(c3cccc(C)c3C)CC2)cc([N+](=O)[O-])c1O
 : -2	6	35	i	13	nt	-1	-11
Cc1ccc(S(=O)(=O)NCC(=O)OCC(=O)c2cc(C)n(-c3ccccc3)c2C)cc1
 : 5	4	6	i	-217	0	9	-17
Cc1cc(NC(=O)Nc2cc(F)ccc2F)no1
 : -1	4	-4	i	-8	nt	0	3
COc1ccc(N2CCN(C(=O)COC(=O)/C=C/c3ccc(OC(F)F)cc3)CC2)cc1
 : 7	nt	17	i	-5	0	8	nt

Four of the compounds above, as tab-separated lines:
Compound	MT1-MMP act inh RFP	eIF4H inh	CSC inhib	Rce1 inhib	Env fusion inh	UUG fidelity	MT1-MMP act inh	PABP FP inh
COc1ccc(S(=O)(=O)Nc2c(C)nc3nc(C)[nH]n3c2=O)cc1	3	-5	nt	i	-3	1	0	10
CCOC(=O)N1CCN(C(=O)CN(c2ccccc2OC)S(=O)(=O)c2ccc(OC)cc2)CC1	4	-4	-10	i	3	nt	-2	-8
CN(C)c1ccc(S(=O)(=O)N2CCCCC2)cc1NC(=O)CCNC(=O)c1ccco1	8	nt	nt	nt	-1	9	-1	nt
Cc1cc(-c2nnc(CCC(=O)NCCc3ccccc3F)o2)no1	3	-9	12	i	nt	-3	0	-4

The list continues.
Under each structure: MT1-MMP act inh RFP	eIF4H inh	CSC inhib	Rce1 inhib	Env fusion inh	UUG fidelity	MT1-MMP act inh	PABP FP inh
N/C(=N\N=C\c1cccc(O)c1)c1nonc1N
 : 0	-5	-2	i	-243	-36	0	-2
Cc1ccc(O)c(NC(=O)c2ccc3c(c2)C(=O)N(CC(C)C)C3=O)c1
 : -2	-5	0	i	-77	-16	4	-2
O=C(Nc1ccc(C(=O)N2CCOCC2)cc1)C1CC1
 : 6	nt	nt	nt	2	14	3	nt
COC(=O)c1ccc2[nH]c(C)cc(=O)c2c1
 : 1	3	-7	i	nt	nt	-2	12
C/C=C/C=C/C(=O)N1CC2(CC(c3cccc(NC(=O)CCCCC)c3)=NO2)C[C@H]1C(N)=O (stereo not given in full)
 : 3	-1	-2	i	-18	-1	0	8
Cc1ccc(CNC(=O)Cn2cccc2C(=O)c2ccccc2C)cc1
 : -3	-1	-16	i	18	nt	-3	-3
COc1ccc2c(Cl)c(C(=O)NC3CCS(=O)(=O)C3)sc2c1 (stereo not given)
 : -1	-1	4	i	nt	1	3	2
O=S(=O)(Nc1nccs1)c1ccc(Cl)cc1
 : 0	-14	-5	i	-32	-15	4	4
CC1(Oc2ccc3ccccc3c2)CCN(Cc2cccn2-c2nccs2)C1 (stereo not given)
 : -3	nt	nt	nt	70*	-10	-4	nt
COc1ccc(C(C(=O)NC2CCCCC2)N(C(=O)CCCC(=O)Nc2ccccn2)c2ccc3c(c2)OCCO3)cc1 (stereo not given)
 : -2	11	-1	i	30	-10	3	-6
Oc1ccc(Br)cc1-c1cc(-c2ccccc2Cl)[nH]n1
 : 7	-7	24	i	10	-21	4	-1
COc1cccc(C(NC(C)=O)c2nc(-c3cccs3)cs2)c1 (stereo not given)
 : 3	nt	nt	nt	-4	-13	-2	nt
CCN1CCN(C(=S)NCCc2ccccc2)CC1
 : 3	0	-10	i	-64	-20	5	5
COc1cccc(C(NC(C)=O)c2nc(-c3ccc4ccccc4c3)cs2)c1 (stereo not given)
 : -1	nt	nt	nt	2	-16	-6	nt
O=C(Oc1ccc(-c2csnn2)cc1)C1CC1
 : -1	-5	-16	i	7	nt	13	-12
CC(=O)c1cccc(NC2c3ccccc3C(=O)N2Cc2ccco2)c1 (stereo not given)
 : 0	3	nt	i	9	-16	9	9
CCOC(=O)c1c(-c2ccccc2)csc1NC(=O)CSc1nc(C)cc(C)n1
 : -7	4	23	i	32	-7	-5	-8
C[C@H](CCC(=O)O)[C@H]1CC[C@H]2[C@@H]3C(=O)C[C@@H]4CC(=O)CC[C@]4(C)[C@H]3CC(=O)[C@]12C
 : 2	-7	-7	i	21	1&6	2	7
COc1ccc2c(c1OC)OCC2C (stereo not given)
 : 0	nt	nt	nt	-54	-7	-1	nt
O=C(/C(=C(\O)c1ccccc1)c1ncc[nH]1)c1ccccc1
 : -1	-2	-1	i	-3	-9	-5	-8
CC(C)CCNC(=O)C1CCC(=O)N1CCc1ccccc1 (stereo not given)
 : 2	-2	nt	i	-12	-6	1	-6
O=C(NCCN1CCOCC1)C1CCN(c2nc3ccccc3o2)CC1
 : 1	-10	5	i	nt	-12	2	-8
COCCOC(=O)C1=C(C)NC(=O)NC1c1ccc(Cl)cc1 (stereo not given)
 : -1	10	-7	i	2	16	-6	5
CCCCCC(=O)OCCc1c(C)nc2nc[nH]n2c1=O
 : 5	-11	-12	i	-1	-16	10	15
O=S(=O)(c1ccc(Cl)cc1)N1CCN(CCc2ccccc2)CC1
 : 2	4	17	i	-5	-9	3	5
Cc1ccc(S(=O)(=O)CC(=O)Nc2c(C)n(C)n(-c3ccccc3)c2=O)cc1
 : 3	-4	-2	i	-3	nt	3	4
COc1ccc(C(C(=O)NC2CCCCC2)N(Cc2cccs2)C(=O)Cc2c[nH]c3ccccc23)cc1OC (stereo not given)
 : -20	0	0	i	0	-22	-3	9
Cn1c(=O)cc(SCC(=O)N2CCCC2)c2ccc(Cl)cc21
 : 1	5	-3	i	26	-7	4	6
O=C(O)C1CCN(S(=O)(=O)N2CCOCC2)CC1
 : 3	-4	10	i	-47	-21	5	5
Cn1c(SCc2ccc(F)cc2)nnc1-c1cnccn1
 : 3	-6	-10	i	-2	-6	0	-12
Cn1c2ccccc2c2cc(/C=N/NC(=O)c3ccc(N)cc3)ccc21
 : 5	-2	32	i	-39	-11	8	-2
O=C(CSc1ccccn1)N1CCc2ccccc21
 : 2	0	8	i	-16	nt	4	-2
O=C1CN(C(=O)CSc2nc3cc(Cl)ccc3c(=O)n2Cc2ccccc2)c2ccccc2N1
 : -24	-2	-15	i	3	nt	-28	-18
NC(=S)N/N=C/c1ccc2cccc(OCc3ccccc3)c2n1
 : -8	-5	-3	i	-6	-15	-5	-7
C=CCn1c(=O)c2ccccc2n2c(Sc3nnnn3-c3ccccc3)nnc12
 : 4	3	-9	nt	-99	-23	0	-5
CCCCSCc1nc2nc(Cl)c(Cl)nc2[nH]1
 : -18	nt	nt	nt	11	-27	1	nt
CC1(c2ccccc2Cl)NC(=O)N(CC(=O)N2CCc3ccccc32)C1=O (stereo not given)
 : 3	nt	-12	nt	-19	-23	4	nt
C/C(O)=C(/C=NCC(=O)O)C(=O)Nc1nccs1
 : 1	5	-2	i	-9	nt	-2	-4
CS(=O)(=O)N1CCN(c2c(Cl)cccc2[N+](=O)[O-])CC1
 : -3	-7	6	i	nt	-5	11	-4
CC(C)COC(=O)Nc1nnc(Cc2ccccc2)s1
 : 3	-5	19	i	6	nt	6	-6
O=C(NC(C(=O)O)c1ccccc1)c1ccccc1 (stereo not given)
 : 5	-8	4	i	-17	-15	0	11
CC(=O)COc1ccc2c3c(c(=O)oc2c1)CCCC3
 : -4	-9	13	i	-144	4	2	0
CC(NC(=O)CSc1nc2ccc(N)cc2s1)c1ccccc1 (stereo not given)
 : -3	1	18	i	3	nt	0	1
Cn1ccnc1SCC(=O)c1cccc(Br)c1
 : 12	5	-1	i	-135	-18	1	-11
Cc1ccccc1NC(=O)c1ccc(F)c(S(=O)(=O)N2CCN(c3ccccn3)CC2)c1
 : -9	3	7	i	nt	nt	5	-10
Cn1c(-c2ccc(F)cc2)cnc1NCc1ccc(C#N)cc1
 : nt	-6	-2	i	-19	-10	nt	-3
COc1ccccc1NC(=S)N(Cc1cccnc1)Cc1ccccc1Cl
 : -1	4	-3	i	11	nt	-7	1
CC(NO)C(C)(C)NO (stereo not given)
 : 5	-2	11	i	nt	-13	0	16
O=C(CSc1nc(-c2ccccc2)nc2ccccc12)Nc1cccc(C(=O)O)c1
 : 2	2	6	i	2	-24	1	7
CCOc1ccccc1N1CCN(C(=O)CN2C(=O)NC3(CCCC3)C2=O)CC1
 : 6	nt	-3	i	30	5	-1	nt
COc1cccc(C(=O)Nc2cc(C)c3c(=O)oc4ccccc4c3n2)c1
 : -4	-6	5	i	-15	-32	-3	13
Cc1cccc(C(=O)N2CCCC(Nc3ccc(F)c(F)c3)C2)n1 (stereo not given)
 : 0	5	3	i	-8	-12	-2	8

Assay outcomes: PubChem BioAssay, several laboratories
